Source: PubChem (ICCB-Longwood Screening Facility, Harvard Medical School)
Choline anaer gr: inhibitors of anaerobic choline-dependent gram-negative bacterial growth; calls only; 0.2% of 55,000 active; Gram-negative bacterium anaerobic choline minimal medium, absorbance growth; stronger effect = lower value; many inactives read as strong as hits in the columns shown;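 active means growth z-score on choline under -2 at 7 or 20 h with little or no fall on glycerol, limits in tiers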;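 further: stock transfer was 300 nL into about 50 µL; the organism is E. coli; final concentration not given here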
Choline anaer gr early: further read-out of Choline anaer gr, marked with its call; z-score; measured here: choline growth z-score, timepoint 1;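 score of optical density at 7 h as mean of two plates; lower means less growth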
* marks the source's active call; other numbers are inactive results; & = joins results of further samples. Some of the compounds tested; the hit share may differ from the screen's.

`COc1ccccc1NC(=O)COc1cccc(-c2nc(-c3ccccc3)no2)c1` gave Choline anaer gr inactive and Choline anaer gr early 0.95.
For Cc1sc(-c2cc(C(F)(F)F)[nH]n2)cc1S(=O)(=O)N1CCN(c2ccccc2)CC1 the results were Choline anaer gr inactive and Choline anaer gr early 0.39.
Screening C[C@]12C=CC(=O)C=C1CC[C@@H]1C2=CC[C@]2(C)[C@@H](C(=O)CN3CCN(c4cc(N5CCCC5)nc(N5CCCC5)n4)CC3)CC[C@@H]12 returned Choline anaer gr inactive and Choline anaer gr early 1.22.
Screening COc1ccc(CNC(=O)C2(C)Cn3nc(C)cc3C(=O)N2c2ccc(NC(C)=O)cc2)cc1 (stereo unspecified) returned Choline anaer gr inactive and Choline anaer gr early -0.92.
Screening Cc1nn(CC(=O)N2CCC(C)CC2)c(=O)c2cc3sccc3n12 returned Choline anaer gr inactive and Choline anaer gr early 0.4.
For O=c1oc2cc(O)c(Cl)cc2c2c1CCC2 the results were Choline anaer gr inactive and Choline anaer gr early 0.57.
For CCOC(=O)c1nc2onc(C)c2c(=O)n1CC(=O)c1cccc(OC)c1 the results were Choline anaer gr inactive and Choline anaer gr early 1.36.
Screening O=C(CCc1nc2sc3c(c2c(=O)[nH]1)CCCCC3)NC1CCCCC1 returned Choline anaer gr inactive and Choline anaer gr early 1.35.
O=C(NC1CCCc2ccccc21)c1ccccc1NC(=O)c1nsc2ccccc12 (stereo unspecified) was read as Choline anaer gr inactive and Choline anaer gr early 1.
`Cc1cccc(NC(=O)Nc2ccc(Nc3nc(C)cc(N4CCCC4)n3)cc2)c1` gave Choline anaer gr inactive and Choline anaer gr early -0.2.
`CN(CCCNC(=O)c1cccc(-n2nnc3cccnc32)c1)Cc1ccccc1` gave Choline anaer gr inactive and Choline anaer gr early 0.59.
For CCn1c(=O)cc(SCC(=O)N2CC=C(c3ccccc3)CC2)c2ccccc21 the results were Choline anaer gr inactive and Choline anaer gr early 0.32.
Cn1c(=O)n(CCC(=O)N2CCCC2)c(=O)c2cc(S(=O)(=O)NCc3ccccn3)ccc21 was read as Choline anaer gr inactive and Choline anaer gr early 0.3.
Screening CCCN1CCN(CCCNC(=O)C2=C(C)C(=O)OC23CCN(C(C)=O)CC3)CC1 returned Choline anaer gr inactive and Choline anaer gr early 0.98.
Screening CC1CCN(C(=O)CN2C(=O)CSc3ncccc32)CC1 returned Choline anaer gr inactive and Choline anaer gr early 0.9.
Screening Cn1cnc(S(=O)(=O)N2CCC(C(=O)Nc3cccc4c3CCCC4)CC2)c1 returned Choline anaer gr inactive and Choline anaer gr early -0.77.
Screening CC(=O)Nc1nc2cc(NC(=O)c3n[nH]c4c3CCCC4)ccc2s1 returned Choline anaer gr inactive and Choline anaer gr early 0.31.
`COc1c(C)cnc2c1c(=O)n(CC(=O)NC(C)(C)C)c(=O)n2C` gave Choline anaer gr inactive and Choline anaer gr early -0.16.
`CC(C)COc1ccc(-c2noc(CCn3nc(-c4ccc5c(c4)OCO5)ccc3=O)n2)cc1` gave Choline anaer gr inactive and Choline anaer gr early 1.78.
Cc1ccc(NC(=O)N2CCN(Cc3nc(-c4ccccc4)oc3C)CC2)cc1C was read as Choline anaer gr inactive and Choline anaer gr early 0.32.
Screening Cc1ccc(N(C(=O)c2ccccn2)C2(C(=O)NC3CCCC3)CCCCC2)cc1 returned Choline anaer gr inactive and Choline anaer gr early -1.31.
For Cc1ccc(C2CCCN2S(C)(=O)=O)cc1 (stereo unspecified) the results were Choline anaer gr inactive and Choline anaer gr early -0.33.
CC1CCCCC1NC(=O)c1sc2ncccc2c1-n1cccc1 (stereo unspecified) was read as Choline anaer gr inactive and Choline anaer gr early -0.25.
For O=S(=O)(c1ccc(F)c(Cl)c1)N1CCc2nc[nH]c2C1 the results were Choline anaer gr inactive and Choline anaer gr early -2.84.
`CCN1C(=O)c2c(C(=O)NC(C)(C)C)ncn2CC1(C)C(=O)NC1CCCC1` (stereo unspecified) gave Choline anaer gr inactive and Choline anaer gr early -0.58.
`Cc1nn2c(S(=O)(=O)N3CCSCC3)c(C(C)C)nc2s1` gave Choline anaer gr inactive and Choline anaer gr early -1.16.
Screening COc1ccccc1N1CCN(C(=O)c2cnn3c(C)c(Cc4ccccc4C)c(C)nc23)CC1 returned Choline anaer gr inactive and Choline anaer gr early -0.11.
Screening CCn1nc(C)c2ccnc(N3CCC(C(=O)N4CCN(CC(=O)N5CCOCC5)CC4)CC3)c21 returned Choline anaer gr inactive and Choline anaer gr early 0.27.
`CC(C)NCC(O)COc1cccc2ccccc12` (stereo unspecified) gave Choline anaer gr inactive and Choline anaer gr early 0.05&0.1&-0.15&0.37&0.06&-1.11&-0.47.
Screening Cc1ccc(CNC(=O)c2oc3ccc(S(=O)(=O)N4CCC(C)CC4)cc3c2C)cc1 returned Choline anaer gr inactive and Choline anaer gr early -0.69.
Screening O=S(=O)(Nc1ccc(F)c(F)c1)c1ccc2nncn2c1 returned Choline anaer gr inactive and Choline anaer gr early -1.45.
For CCSc1nn(CC(=O)Nc2cc(C)cc(C)c2)c(N)c1S(=O)(=O)c1ccc(OC)cc1 the results were Choline anaer gr inactive and Choline anaer gr early 2.02.
Screening Cc1ccc(C(C)C)c(OCC(=O)Oc2cccc(-n3cnnn3)c2)c1 returned Choline anaer gr inactive and Choline anaer gr early -0.06.
O=S(=O)(c1ccc(-c2nnc(C3CC3)o2)o1)N1CCCC1 was read as Choline anaer gr inactive and Choline anaer gr early 0.6.
`Cc1nnc(-c2c(C)[nH]c(C)c2S(=O)(=O)N2CCCCC2)o1` gave Choline anaer gr inactive and Choline anaer gr early -1.29.
`COc1ccc(N2CCN(C(=O)C3CCCN(c4nc5cccnc5s4)C3)CC2)cc1` (stereo unspecified) gave Choline anaer gr inactive and Choline anaer gr early 0.21.
`Cc1ccc(S(=O)(=O)c2c(O)c3ccc(C(=O)Nc4ccc(Cl)cc4)cc3[nH]c2=O)cc1` gave Choline anaer gr inactive and Choline anaer gr early -0.16.
O=S(=O)(NC1CCCCCCC1)c1ccc(-c2cnc(C3CC3)o2)s1 was read as Choline anaer gr inactive and Choline anaer gr early -1.27.
`Cc1ccc2cc3c(nc2c1)N(C(=O)c1ccc(Br)cc1)CC3` gave Choline anaer gr inactive and Choline anaer gr early 2.69.
For Cc1cccc(NC(c2cccnc2)c2c(NC(=O)c3ccccc3)sc(C)c2C)n1 (stereo unspecified) the results were Choline anaer gr inactive and Choline anaer gr early -0.75.
COc1ccc(C2CC(=O)c3cnc(NC(=O)c4ccccc4)nc3C2)cc1OC (stereo unspecified) was read as Choline anaer gr inactive and Choline anaer gr early 0.86.
Cc1c(C(=O)OCc2ccc(Cl)cc2)nnn1-c1ccc(Cl)cc1 was read as Choline anaer gr inactive and Choline anaer gr early 0.51.
Cc1ccccc1-c1nc2scc(CCNS(C)(=O)=O)n2n1 was read as Choline anaer gr inactive and Choline anaer gr early -1.56.
Cn1cnc2ccc(-c3noc(-c4ccc(Br)cc4)n3)cc21 was read as Choline anaer gr inactive and Choline anaer gr early -0.81.
Cc1cc(C)c(S(=O)(=O)Nc2cnc(N3CCNCC3)c(C(=O)N3CCC(C)CC3)c2)c(C)c1 was read as Choline anaer gr inactive and Choline anaer gr early -1.03.
O=C(Nc1ccc(Cl)cc1)N1CCN(c2cnccn2)CC1 was read as Choline anaer gr inactive and Choline anaer gr early -0.75.
For Cc1nc(Nc2ccc(NC(=O)Nc3ccc(F)cc3)cc2)cc(N(C)C)n1 the results were Choline anaer gr inactive and Choline anaer gr early 1.36.
Cc1sc(-c2ccno2)cc1S(=O)(=O)N1CCCCC1C (stereo unspecified) was read as Choline anaer gr inactive and Choline anaer gr early -1.28.
Screening CCOc1ccc(C(CNC(=O)c2cc(-c3ccccc3)on2)N2CCCC2)cc1 (stereo unspecified) returned Choline anaer gr inactive and Choline anaer gr early 0.1.
O=C(c1ccc2c(c1)OCCO2)N1CCC(c2nc3c(nnn3Cc3ccc(F)cc3)c(=O)[nH]2)CC1 was read as Choline anaer gr inactive and Choline anaer gr early -0.44.
For CCCn1cnnc1C1CCCN(C(=O)c2ccsc2)C1 (stereo unspecified) the results were Choline anaer gr inactive and Choline anaer gr early 0.1.
For COc1ccc(C2c3cccn3CCN2S(=O)(=O)c2ccc(OC)c(OC)c2)cc1 (stereo unspecified) the results were Choline anaer gr inactive and Choline anaer gr early 1.74.
For CCN(CC)c1ccc(NC(=O)Cn2c3ncccc3c(=O)n2-c2ccccc2)c(C)c1 the results were Choline anaer gr inactive and Choline anaer gr early 0.79.
`CCCN1C(=O)c2cc(C(=O)N3CCCC3)nn2CC1(C)C(=O)NC1CCCC1` (stereo unspecified) gave Choline anaer gr inactive and Choline anaer gr early -0.1.
For Cc1ccc(C)c(S(=O)(=O)N2CCC(N3CCN(Cc4ccc(F)cc4)C(=O)C3=O)CC2)c1 the results were Choline anaer gr inactive and Choline anaer gr early 1.83.
COc1cc(C2Nc3ccccc3NC3=C2C(=O)CC(c2ccc(Cl)cc2)C3)cc(Br)c1O (stereo unspecified) was read as Choline anaer gr inactive and Choline anaer gr early 0.5.
Cc1nn2c(CNC(=O)C3CCC3)c(C)nc2s1 was read as Choline anaer gr inactive and Choline anaer gr early -0.6.
O=C(NC(c1ccccc1)c1nnc(-c2ccc(Cl)cc2)o1)c1ccc(F)cc1 (stereo unspecified) was read as Choline anaer gr inactive and Choline anaer gr early 1.44.
For C/C(=C(\CCOP(=O)(O)O)SC(=O)c1ccccc1)N(C=O)Cc1cnc(C)nc1N the results were Choline anaer gr inactive and Choline anaer gr early 0.41.
Cc1ccc(NC(=O)N2CCSc3ncccc32)cc1Cl was read as Choline anaer gr inactive and Choline anaer gr early 0.61.

Pulled one by one from the entries so far (3):
Cc1nn2c(CNC(=O)C3CCC3)c(C)nc2s1 was read as Choline anaer gr inactive and Choline anaer gr early -0.6.
COc1cc(C2Nc3ccccc3NC3=C2C(=O)CC(c2ccc(Cl)cc2)C3)cc(Br)c1O (stereo unspecified) was read as Choline anaer gr inactive and Choline anaer gr early 0.5.
For CCCn1cnnc1C1CCCN(C(=O)c2ccsc2)C1 (stereo unspecified) the results were Choline anaer gr inactive and Choline anaer gr early 0.1.

Next part.
`COc1ccc(-c2cc(N3CCN(S(=O)(=O)c4ccc(Br)cc4)CC3)ncn2)cc1` gave Choline anaer gr inactive and Choline anaer gr early 0.54.
CC1CCCCN1S(=O)(=O)c1cc2c(cc1Cl)NC(=O)CO2 (stereo unspecified) was read as Choline anaer gr inactive and Choline anaer gr early -0.08.
Screening COc1ccc(-c2nnc3sc(CN4CCc5ccccc5C4)cn23)cc1 returned Choline anaer gr inactive and Choline anaer gr early 0.9.
Screening COc1cccc(NC(=O)Cn2c(=O)ccc3cc(S(=O)(=O)N4CCCC4)ccc32)c1 returned Choline anaer gr inactive and Choline anaer gr early 1.86.
Screening CCOc1ccc(-n2nnc(C(=O)OCc3cc(C)ccc3C)c2C)cc1 returned Choline anaer gr inactive and Choline anaer gr early 2.02.
`COc1ccccc1N1CC(C(=O)Nc2ccc(-c3nc(-c4ccc(C)cc4)no3)cc2)CC1=O` (stereo unspecified) gave Choline anaer gr inactive and Choline anaer gr early -0.23.
For Cc1ccccc1-c1noc(-c2cccnc2N2CCN(C)CC2)n1 the results were Choline anaer gr inactive and Choline anaer gr early -0.77.
CCN(CC)C(=O)CN1CCN(c2ccc(NC(=O)C3CCC3)c(C(=O)O)c2)CC1 was read as Choline anaer gr inactive and Choline anaer gr early -0.84.
`CN(CCCNC(=O)c1nn(C)c2c1CSc1ccc(Cl)cc1-2)C1CCCCC1` gave Choline anaer gr inactive and Choline anaer gr early 1.11.
`O=c1[nH]c(SCc2nc(-c3ccccc3Cl)no2)nc2c(-c3ccccc3)c[nH]c12` gave Choline anaer gr inactive and Choline anaer gr early 0.3.
For Cc1cc(-n2nc(C)cc2C)n2nc(-c3ccccc3)c(C)c2n1 the results were Choline anaer gr inactive and Choline anaer gr early -0.44.
Screening Cc1ccc(N2CC(c3nc(-c4ccc5c(c4)[nH]c(=O)c(=O)n5C)no3)CC2=O)cc1C (stereo unspecified) returned Choline anaer gr inactive and Choline anaer gr early 0.66.
`Clc1ccccc1-c1nc(-c2ccncc2)no1` gave Choline anaer gr inactive and Choline anaer gr early -1.03.
For O=C(NCc1c(-c2ccccc2)nc2n1CCS2)c1cncc(Br)c1 the results were Choline anaer gr inactive and Choline anaer gr early 0.75.
`Cc1cc(-c2ccc(C)c(S(=O)(=O)N3CCCC(CN4CCc5ccccc5C4)C3)c2)on1` (stereo unspecified) gave Choline anaer gr inactive and Choline anaer gr early -1.44.
Screening CNC(=O)N(C)Cc1ccsc1 returned Choline anaer gr inactive and Choline anaer gr early 1.02.
`Cc1ccccc1C(=O)Nc1ccc(-c2nc(-c3ccccc3)no2)cc1` gave Choline anaer gr inactive and Choline anaer gr early -0.14.
Screening CCCN(CCC)C(=O)Cn1c(=O)n(-c2ccccc2)c(=O)c2ccc(C(=O)NCc3ccc4c(c3)OCO4)cc21 returned Choline anaer gr inactive and Choline anaer gr early -0.97.
Screening Cc1csc2nc(CNS(=O)(=O)c3ccc(Br)cc3)cn12 returned Choline anaer gr inactive and Choline anaer gr early 0.24.

By substructure, the entries above with bromine.
`Cc1ccc2cc3c(nc2c1)N(C(=O)c1ccc(Br)cc1)CC3` gave Choline anaer gr inactive and Choline anaer gr early 2.69.
Cn1cnc2ccc(-c3noc(-c4ccc(Br)cc4)n3)cc21 was read as Choline anaer gr inactive and Choline anaer gr early -0.81.
COc1cc(C2Nc3ccccc3NC3=C2C(=O)CC(c2ccc(Cl)cc2)C3)cc(Br)c1O (stereo unspecified) was read as Choline anaer gr inactive and Choline anaer gr early 0.5.
`COc1ccc(-c2cc(N3CCN(S(=O)(=O)c4ccc(Br)cc4)CC3)ncn2)cc1` gave Choline anaer gr inactive and Choline anaer gr early 0.54.
For O=C(NCc1c(-c2ccccc2)nc2n1CCS2)c1cncc(Br)c1 the results were Choline anaer gr inactive and Choline anaer gr early 0.75.
Screening Cc1csc2nc(CNS(=O)(=O)c3ccc(Br)cc3)cn12 returned Choline anaer gr inactive and Choline anaer gr early 0.24.
